MgrA DNA FP: alters Staphylococcus aureus MgrA binding to DNA | fluorescence polarization | inhibition, %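 (about 10 µg/mL by stock and volumes)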 | 84,000 tested, 0.13% active;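 active = above 50% in either of two replicates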;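 also: 0% = protein plus DNA without compound and 100% = DNA alone without protein; higher means less MgrA bound to DNA so lower polarization; one replicate is shown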
Sa helicase inh: S. aureus DNA helicase inhibition; purified S. aureus helicase, fluorescence unwinding assay; about half of the hits fall short of the stated cut; inhibition, %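 (tested at about 80 µM)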; 120,000 tested, 0.05% active;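 active = both duplicates at 50% or more, or one of them with a favoured structure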;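 also: 0% = mean of negative control wells and 100% = mean of positive control wells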
An asterisk follows results filed as active; . = not tested or not shown. Some of the compounds tested; count on the stated rates, not on these rows.

Preview, 2 compounds:
SMILES	MgrA DNA FP	Sa helicase inh
Cc1ccc2nsnc2c1S(=O)(=O)NC(C)c1ccccc1 (stereo unspecified)	-2.5	1
O=c1[nH]c(Cn2nnc(-c3ccccc3)n2)nc2ccccc12	.	1

This part in full, from the start:
SMILES	MgrA DNA FP	Sa helicase inh
Cc1ccc2nsnc2c1S(=O)(=O)NC(C)c1ccccc1 (stereo unspecified)	-2.5	1
O=c1[nH]c(Cn2nnc(-c3ccccc3)n2)nc2ccccc12	.	1
Nc1nc(SCc2cccc(Br)c2)n[nH]1	-1.1	10
CSc1ccc2nnc(-c3ccccc3)n2n1	.	12
Cc1nn(-c2ccccc2)c2sc(C(=O)N(CC(=O)NC3CCCC3)C3CC3)cc12	-0.5	11
COc1ccc(-c2noc(-c3cccc(F)c3)n2)cc1	2.9	6
COc1ccc(CN(C(=O)CN2C(=O)c3ccccc3S2(=O)=O)c2ccccc2O)cc1	0.2	7
c1csc(C2CC(C3SCCS3)CS2)c1 (stereo unspecified)	0.0	.
CC(=O)NCCc1ccc(-c2csc(N)n2)cc1	.	-8
CSc1cccc(NC(=O)c2ccc(=O)n(C)n2)c1	.	-7
CCCCNC(=O)c1cc(S(=O)(=O)N2CCCC(C)C2)ccc1F (stereo unspecified)	.	5
COc1ccc(-n2nc(C(=O)NCC(=O)NCc3cccnc3)c3ccccc3c2=O)c(OC)c1	.	16
CC(C)C(=O)Nc1cccc(-c2nc3ccccc3s2)c1	2.5	6
CCCC(=O)NCCc1ccc(F)cc1	4.5	2
CCCn1c(SCC(=O)c2cc(C)n(C3CC3)c2C)nc2cc(S(N)(=O)=O)ccc21	.	11
Cc1cccc(C(=O)NC(C(=O)O)C(C)C)c1 (stereo unspecified)	-5.2	8
COc1ccc(C2C(C(=O)N3CC(C)CC(C)C3)c3ccccc3C(=O)N2c2ccc(OC)cc2)cc1 (stereo unspecified)	-0.9	12
Cc1ccc(S(=O)(=O)N2CCN(C3CC(=O)N(Cc4ccccc4)C3=O)CC2)cc1C (stereo unspecified)	.	4
O=C(NC1CC1)c1ccc(C2SCC(=O)N2Cc2ccco2)cc1 (stereo unspecified)	-2.8	-2
CCCc1cc(=O)[nH]c(SCc2ccccn2)n1	.	0

3 entries already listed, sorted by SMILES length, highest first.
SMILES	MgrA DNA FP	Sa helicase inh
COc1ccc(-n2nc(C(=O)NCC(=O)NCc3cccnc3)c3ccccc3c2=O)c(OC)c1	.	16
CCCCNC(=O)c1cc(S(=O)(=O)N2CCCC(C)C2)ccc1F (stereo unspecified)	.	5
CCCC(=O)NCCc1ccc(F)cc1	4.5	2

Carrying on.
SMILES	MgrA DNA FP	Sa helicase inh
O=C(O)/C=C/C(=O)Nc1ccc(OC(F)(F)F)cc1	-1.5	.
C=CCN(CC=C)C(=O)C(C)N1CCN(C2CCCCC2)CC1 (stereo unspecified)	7.0	18
CSc1ccc(Cn2cccc2C2=NC(c3ccccc3)CO2)cc1 (stereo unspecified)	1.6	3
CC1Cc2ccccc2N1C(=O)CSc1nnnn1Cc1ccccc1 (stereo unspecified)	1.9	12
COC(=O)c1cc2c(s1)CN(c1cc(C)cc(C)c1)C2	1.2	-10
CCOc1ccc(CCC(=O)O)cc1	-3.8	.
CCOC(=O)CSc1nc(Nc2ccccc2)c2cnc(N3CCOCC3)nc2n1	-1.1	.
COc1cccc(NC(=O)CC2SC(N)=NC2=O)c1 (stereo unspecified)	.	23
COCCNC(=O)c1ccc2c(=O)n3c(nc2c1)CCCCC3	.	19
Cc1cc(S(=O)(=O)NCC2CCN(C(=O)OC(C)(C)C)CC2)c(C)o1	-2.7	.
CCCCN(C)Cc1c(O)ccc2c(=O)c(-c3ccccc3OC)coc12	.	16
CC(=O)N1CCc2c(sc(NC(=O)c3ccco3)c2C(N)=O)C1	.	24
CCCN(C(=O)C1c2ccccc2C(=O)N(CC(C)C)C1c1cccs1)c1ccccc1C (stereo unspecified)	0.0	8
N#Cc1ccsc1NC(=O)CSc1ccccn1	.	-11
O=C1CSC(c2ccccn2)N1c1ccc(C(F)(F)F)cc1 (stereo unspecified)	1.5	.
O=C(Nc1cc(F)ccc1F)c1cc(-c2ccc(F)cc2)nc2ccccc12	0.1	-1
O=C(Cc1n[nH]c(=O)c2ccccc12)OCc1nnc(-c2ccc(Cl)cc2)o1	.	12
Cc1cccc(-n2cnc3cc(C(=O)NC4CCCC4)ccc32)c1	0.9	6
CCOC(=O)C1CC(=O)C(C(=O)OCC)CC1=O (stereo unspecified)	-1.0	.
N#CCc1ccc(NC(=O)C2=CCCCC2C(=O)O)cc1 (stereo unspecified)	-0.5	.

Entries of single compounds, looked up by structure. Values in the order: MgrA DNA FP, Sa helicase inh
`O=C(Cc1n[nH]c(=O)c2ccccc12)OCc1nnc(-c2ccc(Cl)cc2)o1` across the screens: ., 12
`N#Cc1ccsc1NC(=O)CSc1ccccn1` across the screens: ., -11
`O=C1CSC(c2ccccn2)N1c1ccc(C(F)(F)F)cc1` (stereo unspecified) across the screens: 1.5, .

Later entries:
SMILES	MgrA DNA FP	Sa helicase inh
CC12CCC(C(=O)Nc3ccc(Br)cn3)(OC1=O)C2(C)C (stereo unspecified)	.	19
Cc1ccc(-c2nnn(CC(=O)c3ccc(Cl)s3)n2)cc1	.	-5
Cc1cc(C(=O)COc2ccc(NC(=O)c3ccco3)cc2)c(C)n1Cc1ccccc1	.	-3
Cc1nn(C(C)(C)C)c2c1C(c1ccncc1)C1=C(CCCC1=O)N2 (stereo unspecified)	.	5
Cc1n[nH]c(C)c1S(=O)(=O)N1CCCC(C(=O)NC2CCCCC2)C1 (stereo unspecified)	1.1	13
c1ccc(NCCCNc2ccccc2)cc1	5.5	21
CCc1ccc(NC(=O)CC(NCc2ccco2)C(=O)O)cc1 (stereo unspecified)	.	21
CC(C)C1CC(=O)C=C2CCCCC21 (stereo unspecified)	.	2
CCn1ccnc1C(O)c1ccc(OC)cc1 (stereo unspecified)	-0.7	-4
O=C1CCCCC1Sc1nc2sccc2c(=O)n1-c1ccccc1 (stereo unspecified)	.	13

3 entries out of the list above, ordered by the number in MgrA DNA FP, lowest first:
SMILES	MgrA DNA FP	Sa helicase inh
CCn1ccnc1C(O)c1ccc(OC)cc1 (stereo unspecified)	-0.7	-4
Cc1n[nH]c(C)c1S(=O)(=O)N1CCCC(C(=O)NC2CCCCC2)C1 (stereo unspecified)	1.1	13
c1ccc(NCCCNc2ccccc2)cc1	5.5	21

Continued.
SMILES	MgrA DNA FP	Sa helicase inh
CCOC(=O)Cn1nnc(CSc2ccc(Cl)cc2)n1	3.8	.
CC(C)CCNC(=O)c1cc2c(s1)CS(=O)(=O)C2	.	-2
CCNc1nc(CN2CCOCC2)nc2scc(-c3ccccc3)c12	.	4
CCN(CC)S(=O)(=O)c1ccc(Cl)c(C(=O)OC)c1	3.5	-3
CNC(=O)c1ccccc1S(=O)c1cccc2cccc(C(=O)O)c12 (stereo unspecified)	-4.5	.
CS(=O)(=O)N1CCN(S(=O)(=O)c2ccccc2)CC1	1.0	-1
CCC1(C)NC(=O)N(/N=C/C2CC=CCC2)C1=O (stereo unspecified)	.	7
Cc1noc(C)c1NC(=O)NC1CCCCNC1=O (stereo unspecified)	-0.1	.
Cc1cc(NC(=O)CN(Cc2ccccc2)S(=O)(=O)/C=C/c2ccccc2)no1	.	-10
CNC(=O)c1cn2c3c(ccc(Cl)c3c1=O)OC(C)C2 (stereo unspecified)	.	5
CCC(C)NC(=O)CN1CCc2cc(-c3csc(C)n3)ccc21 (stereo unspecified)	.	19
O=C(OCC(=O)N1CCCCC1)c1cc(-c2ccccc2)nc2ccccc12	0.5	13
O=C(c1cnn2c1NC(c1cccs1)CC2C(F)(F)F)N1CCSCC1 (stereo unspecified)	-0.2	-2
O=C(Cn1nc(Cc2cccnc2)c2ccccc2c1=O)Nc1ccc(Oc2ccccc2)cc1	0.0	9
CC1CCc2ccc(F)cc2N1S(=O)(=O)c1cccs1 (stereo unspecified)	0.3	3
O=C(c1csc2c1CCCCC2)N1CCN(c2ccccc2)CC1	0.4	7
O=C(NCCSCc1ccco1)c1ccccc1	-3.6	.
c1ccc(-c2cc(-c3ccco3)no2)cc1	-0.5	3
O=C1OC2(O)C3C4C=CC(C4)C3C(=O)N2c2ccccc21 (stereo unspecified)	.	-13
Cc1c(CCC(C)C)c(NCCN2CCOCC2)n2c(nc3ccccc32)c1C#N	.	1
COC(=O)c1cc(-c2cccs2)nc2ccccc12	.	11
CCN(CC)S(=O)(=O)c1cccc(-c2nn(CN3CCN(c4ccc(O)cc4)CC3)c(=S)o2)c1	.	4
Cc1[nH]c2ccccc2c1C(=O)COC(=O)C1CC(=O)N(Cc2ccco2)C1 (stereo unspecified)	.	-15
CCOc1ccc(C=Nc2ccc3sc(C)nc3c2)cc1	1.4	5
O=[N+]([O-])c1ccc(Oc2cccc(Cl)c2)nc1	-0.6	.
Cc1cc(S(=O)(=O)Nc2cc(Br)c3oc4c(c3c2)C(=O)CCC4)ccc1Cl	2.0	1
Cn1cc(S(=O)(=O)N2CCCC2)cc1C(=O)NC1CCN(Cc2ccccc2)CC1	.	-15
C=CCNc1cc(C(F)(F)F)nc(-c2ccccn2)n1	-1.5	.
O=C(Cc1csc(-c2cccs2)n1)N1CCN(S(=O)(=O)c2ccccc2C(F)(F)F)CC1	.	-7
Nc1ccccc1N=CC1=C(O)CC(c2ccccc2)CC1=O (stereo unspecified)	4.8	-11
CC(=O)Nc1ccc(C(=O)CCC#N)cc1	-1.1	.
CCOC(=O)C(C)Oc1cc2oc(=O)cc(-c3ccccc3)c2cc1Cl (stereo unspecified)	.	18
CCCN1C(=O)C2(/C(=C(/O)c3ccc(F)cc3)C(=O)C(=O)N2CCN(C)C)c2ccccc21 (stereo unspecified)	.	11
CC1(C)Cc2c(c(N3CCOCC3)nc3sc(C(=O)O)cc23)CO1	-0.1	12
COc1ccc(-n2nc(C(=O)NCC(=O)N3CC(C)CC(C)C3)c3ccccc3c2=O)cc1 (stereo unspecified)	.	-27
CC(C)C(NC(=O)Cc1ccc(S(=O)(=O)N2CCOCC2)s1)c1nc2ccccc2[nH]1 (stereo unspecified)	.	-8
c1ccc2c(c1)NCC2CN1CCOCC1 (stereo unspecified)	-1.9	8
CNC(=O)c1ccccc1S(=O)c1ccccc1CO (stereo unspecified)	.	25
Cn1ccsc1=NC(=O)c1cccc(S(=O)(=O)N2CCc3ccccc32)c1	.	19
Cc1ccc(CC23CN4CC(CN(C4)C2)C3=O)c(C)c1	-2.0	-4
COc1ccc(CSCCN)cc1Cl	0.4	0
CCOC(=O)c1c(SC)n[nH]c1C	3.3	.
N#CCSCC(=O)Nc1ccccc1	2.2	-5
CCCC(CCC)C(=O)Nc1cccc(-c2nc3ccccc3[nH]2)c1	3.1	18
O=C(NC1CCCCCCC1)C1CCCN(c2nc3ccccc3o2)C1 (stereo unspecified)	.	19
Cc1ccccc1OCc1n[nH]c(=S)n1C	-1.1	15
Cc1csc(SCC(=O)c2ccc3c(c2)OCO3)n1	.	9
CCn1c2ccccc2c2nnc(SCC(=O)Nc3ccc(S(N)(=O)=O)cc3)nc21	.	-12
Cc1ccn2cc(-c3cccc(Cl)c3)nc2c1	-1.8	0
S=c1cc(-c2ccccc2)[nH]c(=S)[nH]1	13	5

(more compounds)
SMILES	MgrA DNA FP	Sa helicase inh
Cc1ccc(C2SC(=O)NC3=C2C(=O)c2ccccc23)cc1 (stereo unspecified)	-0.7	7
COc1cc(-c2nc3ccc(Br)cc3c(=O)o2)ccc1OC(C)=O	.	3
CC1CCc2c(sc3nc(SCC(N)=O)n(-c4ccccc4)c(=O)c23)C1 (stereo unspecified)	-1.2	.
CCC(C(=O)N1CCN(c2ncccn2)CC1)n1ccc2cc(S(=O)(=O)N3CCCCC3)ccc21 (stereo unspecified)	.	-21
CCn1c(SCC(=O)Nc2ccc3c(c2)OCO3)nnc1C(C)NC(=O)c1ccccc1F (stereo unspecified)	-2.5	0
Cc1cc(OCC(=O)N/N=C/c2ccc(I)o2)cc(C)c1Cl	-1.9	11
CCC1(C)N=c2c(c(=O)n(C)c(=O)n2C)=NO1 (stereo unspecified)	-0.2	-3
Cc1ccc(C(C)n2cc(C(=O)NCC3CCCO3)nn2)cc1 (stereo unspecified)	-0.1	-3
COc1cccc(N(CC(=O)N2CCC(C(N)=O)CC2)S(C)(=O)=O)c1	1.1	-4
CC(C)(C)N(Cc1ccccc1)C(=O)CSc1nc2c(cnn2-c2ccccc2)c(=O)[nH]1	.	-2
CC(=O)Nc1ccc(S(=O)(=O)NC2CC(=O)N(c3ccc(F)cc3)C2)cc1 (stereo unspecified)	.	4
C[C@]12CCC(=O)C=C1CC[C@@H]1[C@@H]2C(=O)C[C@@]2(C)[C@H]1CC[C@]2(O)C(=O)CO	-0.2	.
O=C(COCc1nc2ccccc2s1)Nc1ccc(-c2nnc3n2CCCCC3)cc1	.	20
Cc1cc(C(=O)Cn2ncc(Cl)c(Cl)c2=O)c(C)n1Cc1ccco1	.	32
N#Cc1c(/N=C/c2ccco2)sc2c1CCCC2	.	-16
c1ccc2c(SCc3cn4ccccc4n3)nncc2c1	-3.8	9
Clc1cccc(OCCN2CCOCC2)c1	-1.5	6
CC1(C)CC2CC(C)(CN2C(=O)CSc2nc3ccccc3c(=O)[nH]2)C1 (stereo unspecified)	.	-4
C/C(=N\O)C(=O)c1ccc(Br)cc1	.	-8
O=C1N=c2ccc(Br)cc2=C1c1sc(=S)n(Cc2ccc(Cl)cc2)c1O	-3.7	.
